Screens (PubChem)
GIV Gai3 FP = inhibitors of GIV peptide binding to Galpha-i3, primary screen, biochemical, fluorescence polarization, FITC-GIV GBA peptide, rat Galphai3; hit rate 0.42% among 210,000; Guanine nucleotide-binding protein G(i) subunit alpha-3 (Rattus norvegicus), P08753; percent of control (FP), % (no concentration beside the values); 90 min; hits give low values; scaled: aluminum fluoride 0%, vehicle 100%;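 active = replicate mean at 85% of control or lower, very high polarization wells dropped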;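 also: wells of about 15 µL received 100 nL stock; the first replicate is given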
Target sequence (P08753 whole entry, looked up): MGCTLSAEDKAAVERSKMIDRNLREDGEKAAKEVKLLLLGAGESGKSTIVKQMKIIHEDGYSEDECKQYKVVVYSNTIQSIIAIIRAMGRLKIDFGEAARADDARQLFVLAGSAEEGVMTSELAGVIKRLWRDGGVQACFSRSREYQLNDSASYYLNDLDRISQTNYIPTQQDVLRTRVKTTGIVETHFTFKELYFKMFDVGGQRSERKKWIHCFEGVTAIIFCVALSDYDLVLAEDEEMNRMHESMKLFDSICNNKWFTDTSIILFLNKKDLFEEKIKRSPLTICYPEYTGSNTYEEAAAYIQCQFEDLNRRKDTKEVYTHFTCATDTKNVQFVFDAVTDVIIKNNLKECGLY
HCMV UL50-53 inh = inhibitors of HCMV UL50-UL53 interaction, biochemical, HTRF; normalized percent inhibition; hit rate 0.15% among 190,000; HCMV UL50-UL53 nuclear egress complex (human cytomegalovirus); inhibition, % (no concentration beside the values);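 active = both replicates at 50% or more, plus weaker picks with an unusually low signal ratio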;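 also: stock transfer was 100 nL into about 20 µL; 0% = negative control wells and 100% = wells with untagged competitor protein; inactives centre near -12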
Sa growth inh = S. aureus growth inhibition at 42 and 30 °C, primary screen, LtaS inhibitor project, RN4220, two temperatures. OD600, 20 h, 42 °C; hits give low values. relative growth, % (concentration not given with the values). hit rate 0.53% among 170,000;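 active = growth at 42 °C up to 50% and 20 or more points under that at 30 °C, or under 10% at both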;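 also: 300 nL library stock went into each well; scaled to the means of positive and negative controls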
Sa growth inh second temp = also measured in Sa growth inh; calls as there; relative growth, %; measured here: growth at 30 °C;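 optical density after 20 h as mean of two plates; 100% = untreated growth and lower means inhibition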
* = called active by the depositor; . = not tested or not shown; & = joins results of further samples.

Structure	GIV Gai3 FP	HCMV UL50-53 inh	Sa growth inh	Sa growth inh second temp
Cc1cc(COC(=O)C23CCC(=O)N2c2ccccc2C(=O)N3C)no1 (stereo unspecified)	.	0	89	91
CCOc1ccccc1N(C)C(=O)c1sc2nc3n(c(=O)c2c1C)CCCC3	100	-5	91	85
CN(C)c1nc(N(C)C)nc(N(C#N)CN2C(=O)c3ccccc3C2=O)n1	98	-4	118	125
COc1cc(Cl)c(C)cc1NC(=O)c1ccc2c(SCC(=O)O)c3c(nc2c1)CCCC3	100	-41	103	91
Cc1ccc(N2C(=O)/C(=C/c3ccc4c(c3)OCO4)N=C2SCC(=O)Nc2cc(C)on2)cc1	.	-2	105	98
CCOc1cccc2cc(-c3nc4ccc(C(=O)O)cc4[nH]3)c(=O)oc12	100	.	136	90
CCOC(=O)c1c(C)[nH]c(C)c1S(=O)(=O)N(C)CC(=O)N1CCn2c1nc1ccccc12	109	0	.	.
CC(=Nc1ccccc1O)c1sc2ccccc2c1O	127	-59	.	.

Structure	GIV Gai3 FP	HCMV UL50-53 inh	Sa growth inh	Sa growth inh second temp
Cc1nc2cccnc2n1-c1cc(C(=O)NC2CCN(Cc3ccccc3)CC2)ccc1Cl	109	-7	.	.
COc1ccc(C2CC(c3ccc(Br)cc3)=NN2C(=O)CCN2CCOCC2)cc1 (stereo unspecified)	104	.	98	77
CCCc1nn2c(=O)cc(COC(=O)c3ccc(NC(=O)CCc4ccccc4)cc3)nc2s1	103	.	93	92
CCO/C=C1\N=C(c2ccccc2)OC1=O	.	2	90	96
N=c1oc2ccc(Br)cc2cc1C(=O)Nc1cccc(C(F)(F)F)c1	104	-7	.	.
O=C1/C(=C/c2ccco2)SC(=S)N1CCc1ccccc1	109	-4	94	73
Nc1ncnc2c1nc(SCC(=O)O)n2Cc1ccccc1	94	.	84	83
Cc1ccc(NC(=O)Cn2c(CC3CCS(=O)(=O)C3)nc3ccccc32)cc1C (stereo unspecified)	.	-6	83	83

Structure	GIV Gai3 FP	HCMV UL50-53 inh	Sa growth inh	Sa growth inh second temp
CSCC[C@@H](C(=O)Nc1cccc(F)c1)N1Cc2ccccc2C1=O	107	-33	107	84
CS(=O)c1scc(-c2ccc(Cl)cc2)c1C#N (stereo unspecified)	106	-19	94	77
COc1ccc(OC)c(C2C(C(=O)Nc3ccccc3)=C(C)Nc3c(C(=O)Nc4ccccc4)cnn32)c1 (stereo unspecified)	98	-4	.	.
CCc1cc(=O)oc2cc3occ(C)c3cc12	108	2	100	91
Cc1ccc(C)c(N2CCN(C(=O)c3cnn(-c4ccccc4Cl)c3C3CCN(C(=O)OC(C)(C)C)CC3)CC2)c1	101	.	105	89
Cn1cc(NC(=O)NCCCN2CCCCC2)c2ccccc2c1=O	100	-12	86	94
CCC(C)Sc1nc(O)cc(=O)n1-c1ccccc1 (stereo unspecified)	98	-12	73	78
Brc1ccc(Oc2nc3ccccc3nc2N2CCOCC2)cc1	107	3	.	.

Structure	GIV Gai3 FP	HCMV UL50-53 inh	Sa growth inh	Sa growth inh second temp
CN1CCN(C(=O)Cn2c(-c3cccs3)cc3ccccc32)CC1	104	.	109	86
Cc1cc(C(=O)COC(=O)c2ccc3c(c2)C(=O)N(CCC(C)C)C3=O)c(C)n1Cc1cccs1	.	-21	98	95
CCN(CC)C(=O)CN1C(=O)c2ccccc2Sc2ccc(C(=O)OCC3CCCO3)cc21 (stereo unspecified)	95	-13	.	.
Clc1ccccc1-c1nnc(-c2ccccc2CNc2ccccc2)o1	105	-6	104	87
CCCCCn1c(=O)c2sccc2n2c(CCC(=O)NC3CC3)nnc12	97	-23	.	.
CC(C)c1ccc(NC(=O)c2cnccn2)cc1	101	-10	94	92
O=C(O)CCCC(=O)Nc1ccc(C(=O)N2CCCCC2)cc1	102	3	68	96
O=C(Nc1ccc(S(=O)(=O)N2CCCC2)cc1)Nc1ccc(F)cc1F	103	-6	97	98

Structure	GIV Gai3 FP	HCMV UL50-53 inh	Sa growth inh	Sa growth inh second temp
Cn1nnc(C(O)CNCc2ccc(F)cc2)n1 (stereo unspecified)	107	1	92	83
CCOC(=O)N1CCN(CC(=O)NCCc2ccc(Cl)cc2Cl)CC1	.	-28	91	81
COc1ccc(OCC(=O)NCC2(N(C)C)CCCCC2)cc1	103	-17	.	.
COc1ccc(CCNC(=O)C2CCC(CNS(=O)(=O)c3ccc(C)cc3)CC2)cc1OC (stereo unspecified)	103	.	106	91
Cc1ccc(-n2nc(CO)c(C(=O)NCc3cccnc3)n2)cc1	97	-39	102	84
O=S(=O)(c1ccccc1)N1CCc2nc(N3CCCCC3)ncc2C1	109	-15	.	.
COc1cccc(NC(=O)CN2C(=O)CSc3ccc(S(=O)(=O)N4CCCC4)cc32)c1	105	.	79	65
Cc1ccc(S(=O)(=O)N(C(=O)C2CCCCC2)c2ccc3oc(=O)sc3c2)c(C)c1	105	.	93	87

Structure	GIV Gai3 FP	HCMV UL50-53 inh	Sa growth inh	Sa growth inh second temp
CCC(C)NC(=O)CSc1nc2c(sc3ccccc32)c(=O)n1CCc1ccc(OC)c(OC)c1 (stereo unspecified)	105	.	109	93
CS(=O)c1ccc2c(c1)NC(=O)CS2 (stereo unspecified)	.	-1	92	97
COc1ccc(CN2C(=O)CSC2c2ccc3cccc(O)c3n2)cc1 (stereo unspecified)	94	-54	.	.
CN(C)Cc1c(O)ccc2cc(-c3nc4ccccc4n3C)c(=O)oc12	112	-66	92	86
COc1ccc(CCN=C2SCCN2C(=O)c2ccc(NC(N)=O)cc2)cc1	.	6	101	104
CC1(C)CC(=O)C=C(NCCCN2CCOCC2)C1	.	-3	96	93
Cc1cc2c(cc1S(=O)(=O)NC(C)(C)C)OCC(=O)N2	102	.	86	89
CC(=O)Nc1cc(-n2c(C)nc3ccccc3c2=O)ccc1Cl	103	-8	83	88

Structure	GIV Gai3 FP	HCMV UL50-53 inh	Sa growth inh	Sa growth inh second temp
Nc1ccc2nc(COc3ccc(Cl)cc3)[nH]c2c1	99	-2	.	.
O=C(Cn1c(=O)n(-c2ccccc2)c(=O)c2c3c(sc21)CCCC3)Nc1ccccc1	107	-4	88	94
O=C(NCCO)c1cccc(C(=O)NCCO)c1	.	7	82	97
CCC(C)NC(=O)C1(O)c2ccccc2NC(=O)N1c1ccccc1 (stereo unspecified)	101	-14	85	87
Cc1ccc(NC(=O)Cn2c(=O)n(-c3ccc(C)cc3)c(=O)c3c2cnn3C)cc1	102	-1	105	90
O=C(CCS(=O)(=O)c1nc(-c2cccs2)cc(C(F)(F)F)n1)Nc1ccc(Br)cc1	108	-24	73	90
COc1ccc(NC(=O)CSC2=Nc3ccccc3C3=NC(CC(=O)NCc4ccco4)C(=O)N23)cc1 (stereo unspecified)	98	.	99	85
COc1ccccc1N1CCN(C(=O)c2cc(C(C)(C)C)oc2C)CC1	102	-22	90	83

Structure	GIV Gai3 FP	HCMV UL50-53 inh	Sa growth inh	Sa growth inh second temp
COc1cc(S(=O)(=O)N2CCCC2)c(OC)cc1C	101	-28	102	101
CC1CCCCN1CCCNC(=O)Cn1ncc2c3ccccc3n(Cc3ccccc3F)c2c1=O (stereo unspecified)	103	-15	101	86
Cc1cc(N2CCN(c3ccccn3)CC2)n2ncnc2n1	102	-37	101	91
CC(C)(C)NS(=O)(=O)c1ccc(Br)cc1	97	3	112	98
NC(=O)C1(N2CCCCC2)CCN(C(=O)Nc2ccc(Cl)c(Cl)c2)CC1	102	6	102	96
CC(C)NC(=O)C1(c2ccccc2)CCOCC1	.	-11	98	91
CC(NC(=O)CCn1c(=O)c2cccn2c2ccc(F)cc21)c1ccccc1 (stereo unspecified)	100	4	112	103
CC(C)OCCCN1C(=O)c2[nH]nc(-c3ccccc3O)c2C1c1ccccc1F (stereo unspecified)	102	-1	106	81

Structure	GIV Gai3 FP	HCMV UL50-53 inh	Sa growth inh	Sa growth inh second temp
O=C(CC1Nc2cccc3cccc(c23)NC1=O)Nc1ccccc1 (stereo unspecified)	101	.	85	66
Cn1ncc(Br)c1NC(=O)CSc1ccc(Cl)cc1	104	16	113	100
COc1ccc(NC(=O)c2nnc(COCC(=O)NCCc3c[nH]c4ccc(C)cc34)s2)cc1	99	-36	.	.
C=CCOc1cc(C)nc(N2CCOCC2)n1	104	.	82	84
O=C(Nc1ccc2c(c1)OCO2)C1=NN(C2CCS(=O)(=O)C2)C(=O)CC1 (stereo unspecified)	.	-3	98	103
c1ccc(NNC2=NCCCCC2)nc1	.	-6	100	94
O=C(Cn1nnc2ccccc21)NCCSCc1ccco1	112	-5	102	98
COc1ccc(NC(=O)c2cnn3c2NC(c2cccc(OC)c2)CC3C(F)(F)F)cc1 (stereo unspecified)	103	-28	92	86

Structure	GIV Gai3 FP	HCMV UL50-53 inh	Sa growth inh	Sa growth inh second temp
COc1cccc(C(=O)Nc2cc(-c3ccccc3)nn2-c2ccccc2)c1	102&106	.	94	86
O=C(c1noc2c1CCCCC2)N1CCCCC1	103&96	-35&6	97	90
CCn1c2ccccc2c2cc(NC(=O)/C=C/C(=O)O)ccc21	105	-6	99	74
Nc1nc2c(c(=O)[nH]1)C(c1ccc(OCc3cccc(Cl)c3)cc1)CC(=O)N2 (stereo unspecified)	96	-13	.	.
O=C1c2ccccc2CCC1Sc1nnc(-c2ccncc2)o1 (stereo unspecified)	105	-22	91	81
Cc1nc(N2CCOCC2)c2c(C(=O)Nc3cccc(C(F)(F)F)c3)c(C)oc2n1	100	.	84	90
O=C(CCc1nc2sc3c(c2c(=O)[nH]1)CCCCC3)NC1CCCC1	95	-19	.	.
CCC(C)(C#CCN1CCN(C)CC1)OC1CCCCO1 (stereo unspecified)	.	11	99	95

Some of the entries above in another layout.
The line under a structure holds: GIV Gai3 FP | HCMV UL50-53 inh | Sa growth inh | Sa growth inh second temp
- CC(C)(C)NS(=O)(=O)c1ccc(Br)cc1
→ 97 | 3 | 112 | 98
- NC(=O)C1(N2CCCCC2)CCN(C(=O)Nc2ccc(Cl)c(Cl)c2)CC1
→ 102 | 6 | 102 | 96
- CC(C)NC(=O)C1(c2ccccc2)CCOCC1
→ . | -11 | 98 | 91
- CC(NC(=O)CCn1c(=O)c2cccn2c2ccc(F)cc21)c1ccccc1 (stereo unspecified)
→ 100 | 4 | 112 | 103
- CC(C)OCCCN1C(=O)c2[nH]nc(-c3ccccc3O)c2C1c1ccccc1F (stereo unspecified)
→ 102 | -1 | 106 | 81
- O=C(CC1Nc2cccc3cccc(c23)NC1=O)Nc1ccccc1 (stereo unspecified)
→ 101 | . | 85 | 66

Additional results follow.
Structure	GIV Gai3 FP	HCMV UL50-53 inh	Sa growth inh	Sa growth inh second temp
C=CCC(O)(CC=C)C(C)N (stereo unspecified)	101	-3	91	81
CC(C)(C)C1=CC(=Nc2ccccc2N)C=C(C(C)(C)C)C1O (stereo unspecified)	191	.	84	87
CC(C)(C)c1ccc(C(=O)NCCC(=O)N2CCN(c3ncccn3)CC2)cc1	.	-8	95	91
Cc1cc(=O)oc2c3c(ccc12)O/C(=C\c1ccc(Cl)cc1)C3=O	.	-9	105	90
COc1ccc(CSc2nc3ccccc3s2)cc1OC	95	.	100	79
COCCCN1C(=O)c2ccc(C(=O)OCC(=O)Nc3ccc(N(C)C)cc3)cc2C1=O	.	-52	91	95
COC(=O)COc1ccc(NC(=O)c2ccco2)cc1	109	6	101	103
Cc1nc(-c2ccc(F)cc2)sc1CCNC(=O)C(=O)Nc1ccc2c(c1)OCCO2	105	.	91	84

Structure	GIV Gai3 FP	HCMV UL50-53 inh	Sa growth inh	Sa growth inh second temp
Clc1cccc(Nc2nnns2)c1Cl	97	-8	79	72
CCN(CC)CCCNC(=O)c1ccc2nc(N3CCCCC3)sc2c1	101	-14	103	89
CC(C)Cc1cc(-c2nnc3sc(-c4ccncc4)nn23)n[nH]1	104	-11	.	.
CCCCn1c2nc3ccccc3nc2c2cccc(C)c21	.	0	99	79
CCn1c(=O)cc(SCC(=O)NCC2(c3ccccc3)CCCC2)c2ccccc21	104	.	83	73
COc1cccc(N2CCN(C3=NS(=O)(=O)C(c4ccc(C)cc4)=C3C)CC2)c1	100	-20	100	99
COc1ccc(C(=O)N2CCC(C(=O)c3c(C)cc(C)cc3C)CC2)cc1	111	-1	108	96
COc1cc(Nc2ncc3c(n2)CCN(S(=O)(=O)c2cc(C)ccc2C)C3)cc(OC)c1	105	-16	.	.

Structure	GIV Gai3 FP	HCMV UL50-53 inh	Sa growth inh	Sa growth inh second temp
CCOc1cc(N2CCOCC2)c(OCC)cc1NC(=O)Cn1nnc(-c2ccccc2C)n1	.	-38	99	99
O=C(NCCCn1ccnc1)c1cccnc1	105	-5	93	93
COc1ccc(C2=NN(C(=O)c3ccc(Br)o3)C(c3cccc(OC)c3OC)C2)cc1OC (stereo unspecified)	100	-15	.	.
Cc1nc(N(C)C)cc(N2CCN(S(=O)(=O)c3cc(C(C)C)ccc3C)CC2)n1	103	6	.	.
O=C(c1ccco1)N1CCN(c2ccc(C(F)(F)F)cn2)CC1	103	-23	110	97
Cc1ccc(-c2ccc(=O)n(C(C)C(=O)N3CCc4ccccc43)n2)cc1S(=O)(=O)N1CCCC1 (stereo unspecified)	101	-29	.	.
O=C(O)C1CC=CCC1C(=O)Nc1ccc(Cc2ccncc2)cc1 (stereo unspecified)	98	.	91	91
CCc1ccccc1NC(=O)Cn1nc(-c2cc(C)ccc2C)c2c(c1=O)CCCC2	92	-20	105	87
CCC(CC)c1nn2c(=O)cc(COc3ccc(NC(=O)c4ccc(C)cc4)cc3)nc2s1	104	-35	111	87
CCCNC(=O)c1cnc(N2CCCC2)nc1	108	.	100	97
